Compound activity as filed in PubChem BioAssay.
Six1-Eya2 blk: qHTS Assay for Inhibitors of the Six1/Eya2 Interaction; Homeobox protein SIX1 (Homo sapiens) + Protein phosphatase EYA2 (Homo sapiens), …; AlphaScreen GST-Six1/His-Eya2 binding, biochemical; stronger effect = lower value; control for the full effect not named in the record; activity change, % (test concentration not listed); 360,000 tested, 0.56% active; in the data active = activity change below about -65%; inconclusive = about -30% to -65%; inactive = above about -30%; also: % is scaled to controls: 0 for no effect and ±100 for the full control effect; compound concentration not given in the record
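Six1/Eya2 binding was read as AlphaScreen signal after compounds were pinned into GST-Six1 plus His-tagged Eya2 (5X stock 250/500 nM) in pH 8.0 Tris/NaCl/TCEP buffer, beads added, then incubated 1 h, 37 C, dark.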
CtBP-E1A blk: qHTS Assay for Inhibitors of the CtBP/E1A Interaction; AlphaScreen GST-E1A/His-CtBP binding, 1536-well; stronger effect = lower value; control for the full effect not named in the record; activity change, % (concentration not given with the values); 340,000 tested, 0.49% active; AID 651724, 2012; in the data active means activity change below about -65%; inconclusive means about -30% to -65%; inactive means above about -30%; also: % is scaled to controls: 0 for no effect and ±100 for the full control effect
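GST-E1A and His-tagged CtBP (125 nM each as 5X stock) were preincubated with pin-transferred compound for 2 h at 37 °C in the dark, then glutathione donor and nickel acceptor beads were added for 1 h before AlphaScreen reading.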
TRPML1 ag: qHTS for Agonists of the Human Mucolipin Transient Receptor Potential 1 (TRPML1). TRPML1-expressing cells, Ca2+ dye fluorescence, FDSS; host cell line not named in the record; reference of the full effect not given here. Mucolipin-1 (Homo sapiens), Q9GZU1. activation, % (test concentration not listed). 410,000 tested, 0.12% active; in the data active = activation above about 50%; inconclusive = about 30% to 50%; inactive = below about 30%; also: 0% is about no effect; the text of the record puts the active cut at 80%
Target sequence (Q9GZU1 whole entry, looked up): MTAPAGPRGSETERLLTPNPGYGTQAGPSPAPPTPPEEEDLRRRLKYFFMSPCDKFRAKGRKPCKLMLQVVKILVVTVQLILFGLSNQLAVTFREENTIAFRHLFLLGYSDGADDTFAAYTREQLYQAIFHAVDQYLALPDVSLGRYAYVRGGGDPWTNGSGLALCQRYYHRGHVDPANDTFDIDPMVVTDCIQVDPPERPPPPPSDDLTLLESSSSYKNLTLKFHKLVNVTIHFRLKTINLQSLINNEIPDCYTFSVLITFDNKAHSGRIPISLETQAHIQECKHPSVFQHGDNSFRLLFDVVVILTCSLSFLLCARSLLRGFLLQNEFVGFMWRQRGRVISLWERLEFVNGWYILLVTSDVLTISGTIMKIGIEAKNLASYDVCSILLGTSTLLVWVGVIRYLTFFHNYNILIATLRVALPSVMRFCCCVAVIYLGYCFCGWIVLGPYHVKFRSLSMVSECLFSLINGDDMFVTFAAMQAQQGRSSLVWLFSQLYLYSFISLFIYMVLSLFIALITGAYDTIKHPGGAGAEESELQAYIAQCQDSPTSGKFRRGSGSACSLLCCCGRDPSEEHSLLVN
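Calcium fluorescence on an FDSS kinetic reader gave the read-out. Tet-induced TRPML1-DL cells were plated overnight, dye-loaded (Ca8 with quencher, 45-90 min, room temperature, dark), then read 110 s after compound addition, and again 110 s after 4uM final 54-4 (EC80).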
TRPML1 inh: qHTS for Inhibitors of the Human Mucolipin Transient Receptor Potential 1 (TRPML1). TRPML1-inducible cells, Ca2+ dye fluorescence, FDSS; stronger effect = lower value; inhibition of EC80 agonist-evoked calcium signal. activity change, negative = inhibition, % (concentration not given with the values). 390,000 tested, 0.02% active. AID 624415, 2012; in the data active means activity change below about -50%; inconclusive means about -30% to -50%; inactive means above about -30%;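 also: stimulus is agonist 54-4 at its EC80 concentration; % is scaled to controls: 0 for no effect and ±100 for the full control effect; compound concentration not given in the record; the text of the record puts the active cut at -80%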
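TRPML1-DL cells, Tet-induced overnight (~16 h, 37 °C) at 1,500 cells/well, were loaded with Ca8 no-wash dye plus quencher for 45-90 min at room temperature. Compounds were pinned during FDSS kinetic reading; agonist 54-4 at EC80 (4 uM final) then added.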
PINK1 expr mod: A Quantitative High throughput Screen to Identify Chemical Modulators of PINK1 Expression; 410,000 tested, 0.2% active; AID 624263, 2012; Potency, µM (top dose mostly 76.6 µM), for the others: at the highest dose activation (PINK1 increase), hits mostly activators; PINK1 immunofluorescence, high-content cytometry, 24 h; active = well fitted activation curve with a large enough effect; inconclusive = small, poorly fitted or top-dose-only effect; inactive = flat fitted curve, though single readings scatter; cell line not stated here;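 also: potency is read from the fitted curve at half-maximal effect; % of control where 0% means no effect; nearly all actives have a fitted effect of over 65% in size; a mitochondrial uncoupler was the plate control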
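PINK1 protein level read as immunofluorescence by microplate cytometer in a fixed, stained stable cell line after 24 h exposure to five compound concentrations, with CCCP as control.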
D2 ag: Beta-Arrestin HTS for Positive Allosteric Modulators of the Human D2 Dopamine Receptor: Agonists; D(2) dopamine receptor (Homo sapiens), P14416; DiscoveRx PathHunter D2 beta-arrestin, luminescence, 90 min; 100% = 57 uM dopamine signal; 360,000 tested, 0.084% active; activation, % (no concentration beside the values); AID 624465, 2012; in the data active = activation above about 40%; inconclusive = about 15% to 40%; inactive = below about 15%; also: compound concentration not given in the record; the text of the record calls up to 30% inactive
Target sequence (P14416 whole entry, looked up): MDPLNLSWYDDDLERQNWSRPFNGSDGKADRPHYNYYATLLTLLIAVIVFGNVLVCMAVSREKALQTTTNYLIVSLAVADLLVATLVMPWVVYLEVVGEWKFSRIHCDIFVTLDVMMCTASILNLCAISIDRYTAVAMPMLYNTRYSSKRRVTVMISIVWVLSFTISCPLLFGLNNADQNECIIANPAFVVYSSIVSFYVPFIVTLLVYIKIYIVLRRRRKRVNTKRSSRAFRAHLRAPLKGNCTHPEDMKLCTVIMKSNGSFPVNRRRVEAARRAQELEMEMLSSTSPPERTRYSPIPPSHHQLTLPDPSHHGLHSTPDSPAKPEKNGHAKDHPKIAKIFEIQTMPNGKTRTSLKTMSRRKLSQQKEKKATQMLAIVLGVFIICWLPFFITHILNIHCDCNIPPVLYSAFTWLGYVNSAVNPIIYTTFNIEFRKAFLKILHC
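DiscoveRx PathHunter D2 beta-arrestin cells (2,100/well) attached overnight, then compound-stimulated 90 min at 37 C in HBSS/10 mM HEPES/0.1% Tween-20 buffer; beta-galactosidase complementation read by luminescence after 1 h at ambient temperature. Dopamine 57 uM final (EC100) as control.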
* = called active by the depositor; ? = inconclusive; / = no result given; & = joins results of further samples; [ ] = another dose, or the depositor's remark. Not a hit list; about 1% have a hit in one of these screens.

The line under a structure holds: Six1-Eya2 blk, CtBP-E1A blk, TRPML1 ag, TRPML1 inh, PINK1 expr mod, D2 ag
COc1ccc2c(c1)c1c(c(=O)n(Cc3ccccc3)c(=O)n1Cc1cccc(Cl)c1)n2C
→ /, /, 1.7, 25, 0.6%, /
Cc1cccc(NC(=O)C2Cc3ccccc3CN2C(=O)OCc2ccccc2)c1C (centres undefined)
→ 1, 2, 4.0, -9, 5.2%, -3.7
CCOC(=O)C(C)Sc1nnc(Cc2cc(=O)[nH]c(=O)[nH]2)n1-c1cccc(OC)c1 (centres undefined)
→ -15, -13, -0.4, -5, 2.8%, -7.0
Cc1cc(C)c2oc(-c3cccc(NC(=O)c4cc5ccccc5o4)c3)nc2c1
→ /, /, -0.1, -24, 1.1%, /
O=C(CCCn1c(=S)[nH]c2cc3c(cc2c1=O)OCO3)N1CCN(c2ccc(Cl)cc2)CC1
→ 2, 0, 1.5, -15, /, -0.7
Cc1ccc(S(=O)(=O)Nc2cccc(C(=O)NCc3ccccn3)c2)cc1F
→ 3, -4, 0.0, 35, 2.0%, -1.6
C=C(C)C(=O)Nc1nnc(-c2ccccc2C)s1
→ 1, 3, 0.2, 6, 2.6%, -1.0
CCOC(=O)c1csc(NC(=O)CSc2nnnn2-c2cccc(OC)c2)n1
→ 0, 3, 0.2, 4, 0.1%, -3.0
N#Cc1cc2c(nc1SCc1ccc(Cl)nc1)CCCCC2
→ 4, 22, 1.4, -12, 5.8%, -8.6
O=C(Nc1nnc(COc2ccc(Br)cc2)s1)c1ccco1
→ -5, 0, 1.3, -14, 1.4%, 0.8
C/C(=N\NC(=O)C1CC1)c1ccc2c(c1)OCCO2
→ -1, 9, -0.8, 9, 3.7%, -3.0
Cc1ccnc(N2CCN(C(=O)CSc3nc4ccccc4nc3N3CCC(C)CC3)CC2)c1
→ -1, 1, 2.3, -1, 1.7%, -1.3
O=C(c1ccc([N+](=O)[O-])cc1Cl)N1CCN(Cc2ccccc2)CC1
→ -1, -4, -0.9, 9, 0.3%, 0.1
CC(=O)c1sc(NC(=O)COc2ccc(C(C)C)c(C)c2)nc1C
→ 19, 0, -0.5, -16, 5.9%, ?
O=[N+]([O-])c1ccc(/C=N/N=C/c2ccc([N+](=O)[O-])o2)o1
→ -28, -25, -0.5, 5, -3.3%, -0.9
COC(C[C@@H](O)C[C@H](O)[C@@H](C)OCc1ccccc1)OC
→ 4, 6, -0.6, 3, 2.1%, -2.9
COc1ccc(S(=O)(=O)N2CC3CCCN3c3cc(C(F)(F)F)ccc32)cc1 (centres undefined)
→ -15, -8, 16, -9, 4.3%, -3.8
CC(C)N(Cc1nc(-c2ccc(Cl)cc2)no1)C(=O)CN(C)S(=O)(=O)c1ccc(Cl)cc1
→ -2, 5, 1.0, 15, ?, 3.1
Cc1nn(-c2ccccc2)c(C)c1NC(=O)COC(=O)Cc1cccc(C(F)(F)F)c1
→ 5, 3, -0.6, 3, 1.1%, -2.7
CC1=C(C#N)CCC(=O)N1Cc1ccc(C)cc1
→ -7, 3, 1.5, 10, 3.5%, 0.6
O=C(NCC(Cl)c1ccc2ccccc2c1)c1c(F)cccc1F (centres undefined)
→ 3, -1, 0.2, 4, 5.9%, 2.5
COc1ccccc1CN1CCC(CNC(=O)c2cnn(-c3ccccc3Cl)c2C2CCN(C(=O)OC(C)(C)C)CC2)CC1
→ /, /, 5.1, 1, -1.1%, /
COCCCN1CC(=O)N2Cc3[nH]c4ccccc4c3C[C@H]2C1=O
→ 1, /, -0.8, -9, 0.4%, -0.7
Cc1cc(C)cc(OCC(=O)N(Cc2ccco2)Cc2ccccc2Cl)c1
→ /, /, 2.7, 21, ?, /
CN1CC(=O)N=C1N
→ -1&3, 2&-1, -0.5&0.3, 4&5, 2.2%&1.0%&1.8%, -1.8&-5.9
CC(=O)N1CCN(S(=O)(=O)c2ccc3c(c2)CC(=O)N3)CC1
→ -1, 1, -0.6, -4, 2.3%, ?
CC1=NNC(=O)C1CC(=O)N/N=C/c1sccc1C (centres undefined)
→ 0, 5, -0.1, 12, 1.9%, 0.0
c1ccc(Oc2nnc(-c3cccs3)c3ccccc23)cc1
→ -6, 0, 0.0, 12, 2.4%, -2.4
CCC(c1nnnn1CCOC)N1CCN(c2cccc(C(F)(F)F)c2)CC1 (centres undefined)
→ 11, 2, 0.5, 8, -1.2%, -0.1
Cc1ccccc1N=C1c2ccccc2C(=O)C1[N+](=O)[O-] (centres undefined)
→ 3, /, 0.3, -16, -0.5%, -2.8

The line under a structure holds: Six1-Eya2 blk, CtBP-E1A blk, TRPML1 ag, TRPML1 inh, PINK1 expr mod, D2 ag
O=C(CSc1nnc(-c2ccc(Cl)cc2)c(-c2ccc(Cl)cc2)n1)NC1CCCC1
→ /, /, 0.0, 7, 0.7%, /
CCn1c(SCCOc2ccc(OC)cc2)nnc1C(CO)NC(=O)c1ccc(OC)cc1 (centres undefined)
→ -1, 0, -0.7, -3, -4.4%, -0.7
Cc1ccc(C)c(NS(=O)(=O)c2c(C)ccc3nsnc23)c1
→ 9, -6, 3.3, -12, -0.7%, 2.5
CCN(CCn1cccn1)Cc1c(C(=O)N2C[C@@H](C)O[C@@H](C)C2)nc2ccc(Cl)cn12
→ 1, 7, 0.1, -17, -0.4%, -1.3
Cc1ccc(CN2CCCN(Cc3ccc(F)cc3Cl)S2(=O)=O)cc1
→ 12, /, 0.1, 48, 6.5%, 4.6
CC1=C(C(=O)NCc2ccc3c(c2)OCO3)C2(CCC(C)CC2)OC1=O (centres undefined)
→ 4, 4, 0.2, 0, 2.5%, -1.1
CC(C)Oc1ccc(CNC(=O)CN2C(=O)CCn3nc(-c4cn(C)c5ccccc45)cc32)cc1
→ /, /, 1.9, 3, -1.0%, /
COc1cc2nc(NC(=O)c3ccc(Cl)cc3)[nH]c(=O)c2cc1OC
→ -2, 1, -0.2, 6, 2.7%, -4.1
O=C(OCc1ccc(Br)cc1F)c1cc2ccccc2oc1=O
→ -12, -21, 1.5, 11, 6.4%, 6.3
COc1cc(N2CCCC2)ccc1[N+](=O)[O-]
→ -21, -11, -0.7, -5, 1.3%, -5.1
Cc1ccsc1/C=C1/SC(=O)N(CC(=O)N2CCOCC2)C1=O
→ -5, 0, -1.0, -8, 0.0%, -1.0
Cc1coc2c1c(C)cc1oc(=O)c(CC(=O)NCCCCCC(=O)O)c(C)c12
→ -13, -12, -0.4, 11, 1.3%, 1.1
C=CCCCCCCCCC(=O)NNC1CC(=O)N(c2ccccc2)C1=O (centres undefined)
→ -1, -5, 1.4, -1, -0.1%, -3.1
Cc1ccc(NC(=O)N2CCc3c(sc4c3CCCC4)C2c2ccccc2)cc1F (centres undefined)
→ /, /, -0.5, 3, -1.7%, /
Cc1cc(C)c(C#N)c(N2CCOCC2)n1
→ 8, 0, 0.7, 32, -0.5%, -3.7
CCOc1ccc(CN(C)C(C)C(=O)NCCc2ccc(F)cc2)cc1 (centres undefined)
→ -6, 4, 0.9, -8, -1.5%, -2.8
CN(C)CCN1CCN(C(c2ccnc3ccccc23)c2nnnn2-c2ccc3c(c2)OCCO3)CC1 (centres undefined)
→ 5, -22, 0.1, /, 1.8%, /
CCOC(=O)C1CCN(C(=O)COC(=O)CCOc2ccc(C)cc2)CC1
→ 0, 3, -0.6, 2, 1.2%, -4.6
COc1ccc(CSc2nc(O)cc(=O)n2CC(C)C)cc1F
→ 5, -11, -0.4, 5, -0.8%, -4.3
Cc1nc(-c2coc3cc(O)c(C)cc3c2=O)cs1
→ -7, 4, -1.6, 8, -3.4%, -2.2
C=CCOc1ccc(C(=O)c2ccccc2)c(OCC(=O)NC2(C#N)CCCC2)c1
→ -8, -1, 1.5, -4, 1.3%, -11
CCOc1cccc(-c2nnc(SCC(=O)NC3CC3)n2C)c1
→ 4, 11, 1.2, 2, -0.1%, 0.8
Cc1ccc(F)c(CNC(=O)C2(C)CCCN2C(=O)C(C)C)c1F (centres undefined)
→ 1, 1, -0.2, 24, 1.0%, -1.8
COc1ccc(OC)c(S(=O)(=O)NCC(c2ccc3c(c2)OCO3)N2CCOCC2)c1 (centres undefined)
→ 0, -25, -0.4, 10, 1.8%, -3.4
CC(=O)c1ccc(NC(=O)CSCCO)cc1
→ 3, 2, 0.1, 4, -0.2%[38.3 µM], 0.0
Cc1ccc(CN2C(=O)c3ccccc3C2C(=O)NCC2CCCO2)cc1 (centres undefined)
→ -1, 7, -0.7, 24, 0.6%, -2.3
CCc1ccc(NC(=S)Nc2cc(C(=O)O)ccc2N2CC3CC(C2)c2cccc(=O)n2C3)cc1 (centres undefined)
→ 2, /, 2.0, -6, -0.8%, -5.1
Cc1ccc(-n2c(-c3ccc(Br)cc3)c[n+]3c2CCc2ccc4cccnc4c2-3)cc1
→ -11, -13, 0.0, 59, ?, -4.3

Sorted by count of non-hydrogen atoms (lowest first): some entries from above
The line under a structure holds: Six1-Eya2 blk, CtBP-E1A blk, TRPML1 ag, TRPML1 inh, PINK1 expr mod, D2 ag
Cc1cc(C)c(C#N)c(N2CCOCC2)n1
→ 8, 0, 0.7, 32, -0.5%, -3.7
CCOc1cccc(-c2nnc(SCC(=O)NC3CC3)n2C)c1
→ 4, 11, 1.2, 2, -0.1%, 0.8
CCn1c(SCCOc2ccc(OC)cc2)nnc1C(CO)NC(=O)c1ccc(OC)cc1 (centres undefined)
→ -1, 0, -0.7, -3, -4.4%, -0.7
CN(C)CCN1CCN(C(c2ccnc3ccccc23)c2nnnn2-c2ccc3c(c2)OCCO3)CC1 (centres undefined)
→ 5, -22, 0.1, /, 1.8%, /
